VDR inhibitor = blocks the human vitamin D receptor; P11473; Potency, µM, inactives show max response, negative = inhibition, usual class: inhibitors; AID 504847; 400,000 tested, 0.93% active; VDR-SRC2-3 peptide fluorescence polarization, 2 h; active = well fitted inhibition curve with a large enough effect; inconclusive = small, poorly fitted or top-dose-only effect, or another doubt; inactive = no such curve, though single readings can be large or run the other way; also: series mostly up to about 120 µM
Target sequence (P11473 whole entry, looked up): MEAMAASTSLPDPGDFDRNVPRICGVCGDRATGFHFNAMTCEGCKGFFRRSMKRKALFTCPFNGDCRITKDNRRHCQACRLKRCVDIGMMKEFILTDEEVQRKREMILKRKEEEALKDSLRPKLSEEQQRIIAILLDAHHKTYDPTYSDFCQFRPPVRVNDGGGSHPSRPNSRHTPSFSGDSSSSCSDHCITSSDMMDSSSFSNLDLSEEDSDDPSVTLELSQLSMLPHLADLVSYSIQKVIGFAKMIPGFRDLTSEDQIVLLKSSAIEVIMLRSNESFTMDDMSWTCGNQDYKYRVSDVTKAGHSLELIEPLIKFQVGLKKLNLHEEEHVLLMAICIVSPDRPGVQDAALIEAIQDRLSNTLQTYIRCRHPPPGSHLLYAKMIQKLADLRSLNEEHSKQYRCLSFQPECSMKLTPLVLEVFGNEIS
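After 23 nl compound addition and a short centrifugation, plates sat for 2 hours at ambient temperature; polarization of fluorescence then indicated loss of VDR binding to peptide SRC2-3.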
Numbers without * were called inactive; ? = inconclusive; & = joins results of further samples. % is scaled to controls: 0 for no effect and ±100 for the full control effect; potency is read from the fitted curve at half-maximal effect.

No.	SMILES	VDR inhibitor
1	CC1CCN(C(=O)Cn2cc(SCC(=O)NCc3ccccc3)c3ccccc32)CC1	-2.7%
2	CCC1Oc2ccc(C)cc2N(CC(=O)NCCCN2CCN(Cc3ccccc3)CC2)C1=O (stereo not given)	-5.5%
3	O=S(=O)(NCc1cccnc1)c1ccc(Cl)nc1	16.4%
4	COc1cc(Nc2ncnc(N)n2)cc(OC)c1OC	18.7%
5	CCN(CC(=O)Nc1ccc(NC(C)=O)cc1)C(=O)c1ccc(COc2ccc(C(C)(C)C)cc2)cc1	12.4%
6	O=C(NC1CCCCC1)c1cc(-n2cnnc2)ccc1Cl	15.6%
7	COc1ccc(Oc2nc3c(c(=O)n(C)c(=O)n3C)n2Cc2ccccc2Cl)cc1	-15.0%
8	Cc1cc(C)nc(SCC(=O)Nc2ccc(S(=O)(=O)NC(C)(C)C)cc2)n1	1.4%

Part of the list above in order of molar mass, ascending:
No.	SMILES	VDR inhibitor
4	COc1cc(Nc2ncnc(N)n2)cc(OC)c1OC	18.7%
3	O=S(=O)(NCc1cccnc1)c1ccc(Cl)nc1	16.4%
7	COc1ccc(Oc2nc3c(c(=O)n(C)c(=O)n3C)n2Cc2ccccc2Cl)cc1	-15.0%
2	CCC1Oc2ccc(C)cc2N(CC(=O)NCCCN2CCN(Cc3ccccc3)CC2)C1=O (stereo not given)	-5.5%

Continuation.
No.	SMILES	VDR inhibitor
9	COc1ccc(CN(C)C(c2ccccc2)c2nnnn2-c2ccccc2C)c(OC)c1C (stereo not given)	-6.0%
10	COc1ccccc1CNC(=O)c1ccc(N2CCCC2)c(NC(=O)NCc2ccccc2)c1	2.6%
11	C/C(=N\S(=O)(=O)c1ccc(C)cc1)Nc1cc(C(C)C)c(O)cc1C	-16.9%
12	CSc1ccccc1C(=O)N1CCc2ccccc2C1	3.9%
13	COc1cccc2cc(C(=O)N3CCN(C(=O)c4ccco4)CC3)c(=O)oc12	-23.0%
14	COc1ccc(C(=O)/C=C/C(=O)N(CC(=O)NC2CCCCC2)CC2CCCO2)c(O)c1 (stereo not given)	8.91µM*
15	Cc1ccc(C2=NOC(C)(c3sc(-c4ccc(Cl)cc4)nc3C)C2)cc1 (stereo not given)	-18.5%
16	O=C(Cc1ccccc1)Nc1ccc(NC(=O)Cc2ccccc2)c(Cl)c1	-17.0%
17	COc1ccccc1NC(=O)c1sc2ncn(CC(=O)Nc3ccccc3)c(=O)c2c1C	-8.2%
18	CC(C)N(C(=O)Cn1c(=O)oc2ccccc21)c1ccccc1	13.5%
19	Cc1ccc(Cn2c(C(=O)O)c(CNCc3cccs3)c3ccc(C)cc32)cc1	17.9%
20	Cc1cc(NC(=O)CN2CCN(c3ccccc3O)CC2)no1	-10.2%
21	CCOC(=O)c1c(NC(=O)CSc2nnc(-c3cccnc3)o2)sc(C(C)=O)c1C	?
22	COc1ccc(NC(=O)COC(=O)c2ccc(S(=O)(=O)N3CCCC3)cc2)cc1OC	-13.5%
23	Cc1ccc(NC(=O)c2sc3nc[nH]c(=O)c3c2C)c(C)c1	5.1%
24	CCOc1c2ccc(C(=O)NCc3ccc(OC(F)(F)F)cc3)cc2nn1C	6.3%

Some of these compounds in order of the VDR inhibitor value, rising.
No.	SMILES	VDR inhibitor
22	COc1ccc(NC(=O)COC(=O)c2ccc(S(=O)(=O)N3CCCC3)cc2)cc1OC	-13.5%
20	Cc1cc(NC(=O)CN2CCN(c3ccccc3O)CC2)no1	-10.2%
18	CC(C)N(C(=O)Cn1c(=O)oc2ccccc21)c1ccccc1	13.5%

Other compounds.
No.	SMILES	VDR inhibitor
25	CCc1cc(N2CCOCC2)cc2c1[nH]c1ccccc12	-13.1%
26	CS(=O)(=O)N1CCN(c2ccccc2NC(=O)C(c2ccccc2)c2ccccc2)CC1	-1.0%
27	O=C(NCC(F)(F)F)c1ccc(S(=O)(=O)Nc2ccccc2N2CCCC2)cc1	23.1%
28	CCCCCc1nnc(NC(=O)Cn2cnc3ccccc3c2=O)s1	10.7%
29	O=C(NC(=S)Nc1ccc(Br)cc1)C1CCC1	0.7%
30	O=C(CSc1nnc(-c2cccnc2)n1-c1ccccc1)NCc1ccc2c(c1)OCO2	-22.0%
31	COc1ccc(C)cc1NC(=O)c1cc(S(=O)(=O)N2CCC3(CC2)OCCO3)ccc1F	-23.9%
32	CCOC(=O)c1[nH]cnc1C(=O)NC(C)C	-11.4%
33	COc1ccccc1NC(=O)COC(=O)C1CC2CCCC(C1)C2=O (stereo not given)	-2.9%
34	CC(C)CCNC(=O)C(=O)NCC1OCCCN1S(=O)(=O)c1cccs1 (stereo not given)	6.3%
35	Cc1onc(-c2c(Cl)cccc2Cl)c1C(=O)c1ccc(F)cc1	8.7%
36	O=C(c1ccc(Cl)cc1)N1CCCC(C(=O)N2CCc3ccccc3C2)C1 (stereo not given)	-3.1%
37	Clc1ccc(-c2nnc(-c3ccccc3)c(N3CCSCC3)n2)cc1	9.5%
38	CCOC(=O)c1cccc(NS(=O)(=O)c2c(C(=O)N3CCCCCC3)c(C)n(C)c2C)c1	-6.0%
39	Cc1ccc(CNS(=O)(=O)c2cc3c(cc2Cl)NC(=O)CO3)o1	10.0%
40	CCn1cc(C(=O)NCCCN2CCC(C)CC2)c(=O)c2cc(S(=O)(=O)N(C)C3CCCCC3)ccc21	8.5%&-9.1%
41	CC(C)Oc1ccc(C2CC(=O)N(c3ccccc3)C2=O)cc1 (stereo not given)	-1.6%
42	Oc1cccc(C=Nc2cccc3ccccc23)c1O	28.2µM*
43	COc1ccc(C(c2nnnn2C2CCCC2)N2CCc3ccccc3C2)cc1OC (stereo not given)	2.9%
44	COc1ccccc1C(=O)Cc1ccccc1	-5.8%
45	Cc1ccc(NC(=O)c2ccccc2O)cc1	9.7%
46	O=c1[nH]c2ccccc2n1CCCN1CCN(C(c2ccccc2)c2ccccc2)CC1	5.9%
47	CCCNc1nc2c(c(=O)[nH]c(=O)n2C)n1CCC(C)C	1.1%
48	COc1cccc(-c2cn3c(n2)sc2cc(C(=O)NCCC4=CCCCC4)ccc23)c1	6.7%
49	COc1cc2c(cc1OC)C(C(=O)NC1CC1)C1c3ccccc3CCN1C2=O (stereo not given)	8.1%
50	COc1ccc(OC)c(/C=C/C(=O)Oc2ccc(C(C)=O)cc2)c1	3.0%
51	CC(C)Cn1c(N)c(C(=O)CSc2ccccc2)c(=O)n(C)c1=O	-17.9%
52	Cc1noc(C)c1C(=O)N1CCC2(CC1)CCN(c1ccccn1)CC2	-12.2%
53	O=C(NP(=O)(N1CCCC1)N1CCCC1)C1=C(N2CCOCC2)/C(=C/c2cccc([N+](=O)[O-])c2)CC1	-27.7%
54	O=C(NC1CCC(O)CC1)C1CCN(S(=O)(=O)c2c(Cl)cccc2Cl)CC1 (stereo not given)	-23.6%
55	O=C(CNC(=O)c1cccs1)OCc1ccc(Cl)cc1	-4.1%
56	Cc1ccccc1NC(=O)CC1c2ccccc2CC(C)(C)N1C (stereo not given)	4.5%
57	CCCNC(=O)COC(=O)c1[nH]c(C)c(C(=O)OCC)c1C	14.3%
58	O=C(Nc1ccccc1Cl)N1CCC2(CC1)Oc1ccccc1C(=O)N2Cc1ccc(F)cc1	-1.0%
59	CC(C)COC(=O)c1cc(-c2ccc(/C=N/n3cnnc3)o2)ccc1Cl	-13.4%
60	O=C(CCN1C(=O)/C(=C/c2ccccc2F)SC1=S)N[C@@H](CO)Cc1ccccc1	1.9%
61	COc1ccc(NC(=S)NCCc2c(C)[nH]c3ccc(OC)cc23)cc1	-2.5%
62	COCCNC(=O)c1cccc(OC2CCN(Cc3ccc(Cl)c(F)c3)CC2)c1	0.3%
63	COc1ccc(-c2nc(N)c(C#N)c(-c3cccnc3)c2C)cc1	-3.2%
64	CCNC(=S)Nc1cccc(NC(=O)c2ccccc2O)c1	1.8%
65	CCOc1cc(C(=O)Nc2ccccc2N2CCOCC2)ccc1OCC(=O)N1CCOCC1	-10.7%
66	COC(=O)c1ccccc1NC(=O)CSc1nc2ccccc2nc1Cc1ccc(F)cc1	11.1%
67	O=C(Cc1ccccc1)N/N=C/C=C/c1ccccc1[N+](=O)[O-]	3.9%
68	CCc1nnc(NS(=O)(=O)c2ccc(NC(=O)CCC(=O)O)cc2)s1	-18.3%
69	Cc1nn2c(=O)cc(COC(=O)c3cccc(NC(=O)c4ccc(C(C)(C)C)cc4)c3)nc2s1	9.1%
70	COc1ccc(/C=N/NC(=O)c2cccnc2)cc1CSc1ccccn1	-14.7%
71	O=C(NCCC1CCCC1)C1CCC(=O)N(CCCN2CCCC2=O)C1 (stereo not given)	-17.3%
72	CCOC(=O)c1c(C)nc(SCC(N)=O)c(C#N)c1-c1ccccc1	-0.5%
73	C(=NN=C(NN=Cc1cccs1)NN=Cc1cccs1)c1cccs1	-4.1%
74	Cc1cc(C(=O)COc2nncc3ccccc23)c(C)n1C	-6.6%
75	Clc1ccc2c(c1)c1cc(Cl)ccc1n2CN1CCOCC1	-5.9%
76	Cc1ccc(NC(=S)NNC(=O)c2nn(C)c(C)c2Cl)cc1	-5.5%
77	COC(=O)C(N)Cc1ccc(Cl)cc1 (stereo not given)	2.7%&1.4%
78	Cc1c(C(=O)Nc2ccc(F)cc2F)oc2c1-c1nn(Cc3c(F)cccc3Cl)cc1CC2	10.0%
79	CCN(c1ccccc1)S(=O)(=O)c1nnc(NC(=O)CC(C)C)s1	-8.5%
80	CCCCn1c(SCC(=O)NC2CCS(=O)(=O)C2)nnc1-c1ccc(OC)cc1 (stereo not given)	-3.7%

Next part:
No.	SMILES	VDR inhibitor
81	CC(O)C(=O)O (stereo not given)	-11.9%
82	O=C(Nc1ccccc1-c1ccccc1)c1cccs1	70.8µM*
83	COc1ccccc1NC(=O)C1CCCN1C(=O)NCc1ccccc1 (stereo not given)	-7.6%
84	CC(=O)c1ccc(Cc2cnc(N)s2)cc1	9.7%
85	O=C(O)C1CC=CCC1C(=O)Nc1ccccc1Cl (stereo not given)	-12.2%
86	CCOc1cc(/C=C/C(=O)OCC(=O)NC2CCS(=O)(=O)C2)ccc1OCc1ccccc1 (stereo not given)	-14.1%
87	CCCCSc1nnc(-c2ccc(C)cc2)o1	-3.3%
88	CC1CCCC(NC(=O)COC(=O)COc2cccc(F)c2)C1C (stereo not given)	0.3%
89	CCOC(=O)N1CCC(N(C(=O)Nc2ccc(CC)cc2)C(C)CC)CC1 (stereo not given)	-12.9%
90	CNC(=O)Cn1c(C)cc(=O)c2cccc(OC)c21	-13.1%
91	CCCCn1cnc2c(c(CC#N)nn2-c2ccccc2)c1=N	-3.3%
92	N#Cc1ccccc1NC(=S)NC(=O)c1cccs1	-20.0%
93	O=C1C(Cc2ccccc2)Nc2ncnc(N3CCCCC3)c2N1Cc1ccc(Br)cc1 (stereo not given)	11.2%
94	O=C(CCc1nc2ccccc2s1)N1CCN(S(=O)(=O)c2cccs2)CC1	-0.2%
95	CCOC(NC(=O)c1ccccc1)C(NC(=O)c1ccccc1)OCC (stereo not given)	-0.8%
96	Cc1c(NC(=S)NC(=O)c2sc3ccccc3c2Cl)cccc1C(=O)O	?
97	Cc1cc(C)n(-c2nc(NCC(C)O)c3c4c(sc3n2)COC(C)(C)C4)n1 (stereo not given)	5.2%
98	Cc1ccccc1CCNC(=O)c1cc(C2CC2)nc2c1cnn2C(C)C	5.6%
99	CCOc1ccc(NC(=O)N2CCN3CCCCC3C2)cc1 (stereo not given)	-2.0%
100	COc1cc(NC(=O)c2cnc(N)s2)cc(C(=O)Nc2cccc(C(F)(F)F)c2)c1	13.7%
101	Clc1ccc2c(c1)-c1c(cnc3cc(-c4ccccc4)nn13)CO2	1.1%
102	O=C(Nc1ccccc1)c1cc2c(=O)c3ccccc3oc2nc1C(F)(F)F	10.2%
103	Cc1ccc(C(=O)N(CC(=O)NC2CCCC2)c2ccccc2C)s1	4.1%
104	CC12CN3CC(c4ccccc4)(CN(C1)C3c1ccc(Cl)cc1)C2=O (stereo not given)	3.6%
105	COc1ccc(NC(=O)CN(C)C(=O)CCNC(=O)Nc2ccccc2)cc1	6.1%
106	O=C1/C(=C\c2cc(Br)cc(Br)c2O)SC(=S)N1Cc1ccccc1	50.1µM*
107	CCN(CC)S(=O)(=O)c1cccc(-c2nnc(SC(C)C(N)=O)n2CCc2ccccc2)c1 (stereo not given)	0.2%
108	OC(CNCc1ccccc1C(F)(F)F)C(F)(F)F (stereo not given)	1.1%
109	COc1ccccc1N1CCN(C(=O)c2nn(C)c3c2CS(=O)(=O)c2ccccc2-3)CC1	11.1%&-2.3%
110	O=C(COc1ccccc1)Nc1ccccc1C(=O)NC1CC1	-1.0%
111	CCC(C)(C(=O)NC1CCCCC1)N(Cc1ccco1)C(=O)CC1NC(=O)NC1=O (stereo not given)	-0.9%
112	CN=C(Nc1ccccc1)SC1CC(=O)N(c2ccc(C(=O)OC)cc2)C1=O (stereo not given)	-3.1%
113	O=C(c1cc2cc3ccc(Cl)cc3nc2o1)N1CCN(Cc2ccc3c(c2)OCO3)CC1	2.8%
114	O=C(CSc1nnc(-c2ccncc2)n1-c1ccccc1Cl)Nc1ccc(C(=O)O)cc1	1.7%
115	CC1(C)C(=O)Nc2ccccc2N1C(=O)CN1C(=O)C(=O)N(C2CCCC2)C1=O	12.2%
116	CCSc1ncc(Cl)c(C(=O)Nc2ccc(S(N)(=O)=O)cc2)n1	4.3%
117	CN1C(=S)NC(C)(C)CC1(C)c1ccc(O)cc1O (stereo not given)	-2.5%
118	Cc1cc(N2CCN(C)CC2)nc2ccc(NC(=O)CCC(=O)NCCC3=CCCCC3)cc12	9.3%
119	c1ccc2[nH]c(SCc3cscn3)nc2c1	-3.8%
120	CC(C)CCNC(=O)NC(=O)COC(=O)/C=C/c1cccc([N+](=O)[O-])c1	-6.6%
121	Cc1ccc(C(=O)OCc2nnc(-c3ccccc3)o2)s1	-18.3%

Compound activity (PubChem)

A portion of the library, so the mix of outcomes need not match the whole.
